# High-throughput results as filed in PubChem.
# KCNQ2 enhance: enhances the rat KCNQ2 potassium channel. O88943. CHO-K1 KCNQ2, FluxOR thallium flux fluorescence; hits give high values. B-score at 10 µM. actives 0.54% (n = 310,000). AID 2239;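 active = fluorescence ratio B-score at least 3 SD of library B-scores, with initial fluorescence B-score within 3 SD, cut at about 5.3 in these data; same plate scores as AID 2156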;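 also: B-score of peak minus minimum over baseline fluorescence ratio after K+ and Tl+ stimulus; positive B-score means potentiation of KCNQ2 with more thallium influx and brighter signal; only the inactives scoring about 0 or higher are listed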
# Target sequence (O88943 whole entry, looked up): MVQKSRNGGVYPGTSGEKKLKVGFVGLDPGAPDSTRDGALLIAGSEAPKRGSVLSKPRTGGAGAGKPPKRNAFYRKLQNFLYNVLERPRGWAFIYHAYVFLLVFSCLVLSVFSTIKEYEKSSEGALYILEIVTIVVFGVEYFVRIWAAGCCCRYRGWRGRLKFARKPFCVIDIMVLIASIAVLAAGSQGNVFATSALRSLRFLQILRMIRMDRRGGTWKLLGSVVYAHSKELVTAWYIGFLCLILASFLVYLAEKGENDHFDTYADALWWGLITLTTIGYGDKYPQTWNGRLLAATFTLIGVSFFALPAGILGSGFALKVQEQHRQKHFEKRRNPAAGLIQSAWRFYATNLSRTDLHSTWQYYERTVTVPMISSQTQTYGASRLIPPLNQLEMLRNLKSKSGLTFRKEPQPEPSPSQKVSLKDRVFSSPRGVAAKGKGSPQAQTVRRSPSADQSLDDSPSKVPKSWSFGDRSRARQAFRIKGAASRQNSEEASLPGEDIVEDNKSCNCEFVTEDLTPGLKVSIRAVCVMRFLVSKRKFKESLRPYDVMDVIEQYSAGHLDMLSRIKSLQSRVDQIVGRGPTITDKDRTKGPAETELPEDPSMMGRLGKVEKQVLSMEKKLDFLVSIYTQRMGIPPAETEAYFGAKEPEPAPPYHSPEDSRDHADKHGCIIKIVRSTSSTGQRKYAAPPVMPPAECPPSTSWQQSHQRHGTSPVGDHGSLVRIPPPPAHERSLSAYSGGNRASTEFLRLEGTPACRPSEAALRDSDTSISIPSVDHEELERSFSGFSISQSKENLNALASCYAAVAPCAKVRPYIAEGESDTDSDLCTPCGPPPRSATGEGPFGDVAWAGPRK
# KCNQ2 enhance baseline: recorded beside KCNQ2 enhance, whose call it bears; B-score; compound at 10 µM; measured here: initial fluorescence intensity artifact check;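 brightness before thallium and not channel activity; 0 = typical well and far values either way flag optical interference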
# Numbers without * were called inactive. A portion of the library; rates above refer to the full screens.
KCNQ2 enhance	KCNQ2 enhance baseline	molecule
0.16	0.04	COc1ccc(N2CCC(CNC(=S)Nc3cc(C)cc(C)c3)C2)cc1 (stereo not given)
0.95	-0.17	COc1ccc(CCN2C(=O)c3cccnc3C2=O)cc1OC
0.01	-0.39	Cn1c(=O)c2c(ncn2CCCC(=N)N2CCOCC2)n(C)c1=O
0.13	1.02	O=C(CSc1ccccn1)Nc1ccc2c(c1)oc1ccccc12
0.11	0.45	CC12CCC(=O)N1C(C(=O)N1CCN(S(=O)(=O)c3ccccc3F)CC1)CS2 (stereo not given)
0.97	-1.17	Cc1ccc(C(=O)CSc2ncnc3ccccc23)o1
0.04	0.99	CC(C)C[C@H](NC(=O)c1nc[nH]c1C(=O)NC(c1ccccc1)c1ccccc1)C(=O)OCc1ccccc1
0.03	-1.5	Cc1ccc(N2CCN(S(=O)(=O)c3ccc(C)cc3)CC2)cc1
0.29	1.31	CCOP(=O)(O)c1ccccc1OCCOCCOc1ccccc1P(=O)(O)OCC
0.79	-0.78	CCOC(=O)c1c(NC(=O)CC2Nc3cc(C)c(C)cc3NC2=O)sc(C)c1C (stereo not given)
2.11	-0.77	CCn1c(CCCNC(=O)c2ccco2)nc2ccccc21
0.61	0.84	NC(=S)Nc1ccc(S(=O)(=O)c2ccc(NC(N)=S)cc2)cc1
0.35	-0.44	COc1cc(Nc2ccc(S(N)(=O)=O)cc2)c([N+](=O)[O-])nc1[N+](=O)[O-]
0.27	0.37	O=C(c1ccc(Cl)c(Cl)c1)c1cnc(Nc2ccccc2)s1
1.59	-0.14	C=CCn1c(=O)c(C(=O)NCCc2ccc(Cl)cc2)c(O)c2cc(OC)c(OC)cc21
1.17	0	CCN1CCN(CCCN(Cc2ccco2)C(=S)Nc2ccc(Cl)cc2)CC1
1.93	0.11	OCCNc1nc(-c2ccccc2)nc2ccccc12
1.85	-0.57	CCOC(=O)C1CCN(C(=O)CCn2c(=O)[nH]c3ccccc3c2=O)CC1
2.56	-0.27	CCOc1cc(C(=O)NCc2ccco2)cc(OCC)c1OCC
2.14	0.23	COc1cccc(C(=O)OCCN2C(=O)c3ccccc3C2=O)c1OC
1.16	-0.01	Cc1cccc(C(=O)Nc2ccnc(-c3cccnc3)n2)c1
0.92	0.03	CCc1ccccc1NC(=O)c1cc(C)no1
0.48	2.35	CC(C)Cn1c(SCC(=O)Nc2ccc3[nH]c(=O)[nH]c3c2)nc2ccccc2c1=O
2.69	-0.19	Cc1ccc(CN2CCN(CC(C)C)C(CCO)C2)s1 (stereo not given)
0.02	-0.09	Cn1c2c(c(=O)n(C)c1=O)CN(CCc1ccccc1)CN2
0.41	-0.77	O=C(OCC(=O)c1c[nH]c2ccccc12)c1cc2ccccc2cc1O
1.26	2.08	O=C(NNc1ccc(F)cc1F)C1CCC1
1.38	-0.28	Nn1c(COc2ccccc2F)nnc1SCC(=O)NC1CCS(=O)(=O)C1 (stereo not given)
0.08	0.92	Cc1ccc(OCC(=O)NNC(=O)Cn2c(=O)cnc3ccccc32)cc1
0.25	0.44	Cc1cc(C)c(NC(=O)OCCN2CCOCC2)c(C)c1

# In the list so far, 3 contain two or more sulfur atoms.
KCNQ2 enhance	KCNQ2 enhance baseline	molecule
0.11	0.45	CC12CCC(=O)N1C(C(=O)N1CCN(S(=O)(=O)c3ccccc3F)CC1)CS2 (stereo not given)
0.61	0.84	NC(=S)Nc1ccc(S(=O)(=O)c2ccc(NC(N)=S)cc2)cc1
1.38	-0.28	Nn1c(COc2ccccc2F)nnc1SCC(=O)NC1CCS(=O)(=O)C1 (stereo not given)

# Looked up one by one from the list above, four records:
KCNQ2 enhance	KCNQ2 enhance baseline	molecule
0.04	0.99	CC(C)C[C@H](NC(=O)c1nc[nH]c1C(=O)NC(c1ccccc1)c1ccccc1)C(=O)OCc1ccccc1
0.02	-0.09	Cn1c2c(c(=O)n(C)c1=O)CN(CCc1ccccc1)CN2
1.26	2.08	O=C(NNc1ccc(F)cc1F)C1CCC1
0.11	0.45	CC12CCC(=O)N1C(C(=O)N1CCN(S(=O)(=O)c3ccccc3F)CC1)CS2 (stereo not given)

# (continued)
KCNQ2 enhance	KCNQ2 enhance baseline	molecule
1.53	-2.38	COCCOC(=O)c1c(NC(=O)CN(C)c2ccccc2)sc(C(N)=O)c1C
0.28	-1.46	CC(C)CNC(=S)N(CCN(C)C)Cc1cc2cc3c(cc2[nH]c1=O)OCO3
0.2	0.93	CCC(C)NCCCOc1ccc([N+](=O)[O-])cc1 (stereo not given)
0.11	0.34	CC(C)(C)[C@H]1C=C(C(=O)N2CCN(Cc3ccccc3)CC2)O[C@@H](OCc2ccc(CO)cc2)C1
0.39	-0.12	Cc1cc(NC(=O)c2cccc3c2C(=O)N(C2CCCCC2)C3)ccc1Br
0.01	-0.04	O=C1C2CCCN2C(c2ccc(F)cc2)N1c1ccc(Cl)cc1 (stereo not given)
3.27	0.6	COCCN=c1scc(-c2ccccc2)n1/N=C/c1c[nH]c2ccccc12
0.8	-1.3	Cc1cccc(NC(=O)c2ccc(F)c(S(=O)(=O)N3CCC4(CC3)OCCO4)c2)c1
0.85	0.66	Cc1ccc(NC(=O)Cn2cc(S(=O)(=O)c3ccccc3)c(=O)c3cc(F)ccc32)cc1
0.45	0.97	CC1=NN(c2nc3ccccc3[nH]2)C(=O)/C1=C/N(C)C
0.92	0.36	O=c1oc2cc(O)ccc2c2oc3cc(O)ccc3c12
0.27	0.41	Cc1cccc(C(=O)NNC(=O)c2ccc(Cl)cc2)c1O
0.06	-0.6	CCOc1ccc(Cn2nnc(C(=O)Nc3cc(C)cc(C)c3)c2N)cc1
0.82	0.94	CCOC(=O)CCc1c(C)nc2cc(-c3ccccc3OC)[nH]n2c1=O
1.12	0.07	O=C1Nc2ccccc2/C1=C/c1ccnc2ccccc12
0.01	-0.28	OCCCc1nc2ccccc2n1CCOc1ccccc1
2.99	-0.85	CCCOc1ccc(Cc2c(O)nc(N)[nH]c2=O)cc1C
0.03	0.62	CCCCC(=O)Nc1ccc(C(=O)NNC(=O)CCc2ccccc2)cc1
1.53	1.27	COC(=O)c1ccc(NC(=S)N2CCN(Cc3ccccc3Cl)CC2)cc1
0.23	-1.14	CCOC(=O)c1oc2ccccc2c1NC(=O)c1ccc(S(=O)(=O)N(C)C)cc1
0.09	2.57	COc1ccc(/C=C/C(=O)NC2CCS(=O)(=O)C2)cc1 (stereo not given)
0.27	3.51	O=C(NCc1ccco1)c1cc(S(=O)(=O)N2CCOCC2)ccc1Br
1.14	0.59	CN1CCN(C(=O)c2cnn(-c3ccccc3)c2NC(=O)c2ccc([N+](=O)[O-])cc2)CC1
0.04	-0.04	Cc1ccc(C2CC(c3cccc(Cl)c3)n3nc(N)nc3N2)cc1 (stereo not given)
0.16	-0.8	O=C(CC1C(=O)NCCN1Cc1ccc(Cl)c(F)c1)NC1CCC1 (stereo not given)
0.9	1.29	O=C(Cc1ccccc1)NNC1CC(=O)N(c2ccc(Oc3ccccc3)cc2)C1=O (stereo not given)
1.38	1.06	CN(Cc1nc(Cc2ccccc2F)no1)[C@@H]1CS(=O)(=O)C[C@H]1O
1.12	0.07	Cc1[nH]c2ccc(-c3n[nH]c(=S)n3-c3ccc(Br)cc3)cc2c1C
0.03	-1.5	CCOC(=O)C1CCCN(c2nc3ccccc3nc2C(C#N)C(=O)OCC)C1 (stereo not given)
1.03	1.38	CC(C)(C)OC(=O)N[C@@H](Cc1ccccc1)C(=O)NCC1CCC(C(=O)N[C@@H](CC(=O)O)C(=O)O)CC1 (stereo not given in full)
1.2	1.77	CCOC(=O)N1C2=NC(C(=O)OC)=C(C(=O)OC)[C@@H]3N(C)c4ccc(OC)cc4[C@]23C[C@H]1C(=O)OC
1.7	-1.55	CN(CCc1ccccn1)C1CCCN(S(=O)(=O)c2ccc(F)c(Cl)c2)C1 (stereo not given)
6.4*	-1.67*	CCN(CC)C(=S)SCC(=O)Nc1ccc(F)cc1
1.24	-0.68	O=C(Oc1coc(CSc2ncccn2)cc1=O)c1cccc([N+](=O)[O-])c1
0.03	-0.55	O=C(NC1CCS(=O)(=O)C1)c1cnccn1 (stereo not given)
2.49	-1.68	CCOc1ccc2nc(C)cc(Nc3ccc(N4CCOCC4)cc3)c2c1
0.92	2.13	N#CC(C(=O)c1ccccc1)=C1SCCS1
0.2	1.55	O=C(COc1cccc(C(F)(F)F)c1)Nc1ccc(S(=O)(=O)N2CCCC2)cc1
2.17	1	O=C(CS(=O)(=O)Cc1ccccc1)N1CCN(C(=O)c2ccco2)CC1
0.07	-0.56	N#Cc1sc(NCc2ccccn2)nc1Cl
1.28	-0.01	Cc1cc(OC(=O)c2ccccc2F)c([N+](=O)[O-])c(=O)[nH]1
3.43	-0.41	Cc1ccc(NC(=O)c2ccc(N3C(=O)C4CC=C(Cl)CC4C3=O)cc2)cc1 (stereo not given)
0.03	-1.4	C=CCOc1ccc(C2/C(=C(\O)c3ccc4c(c3)CC(C)O4)C(=O)C(=O)N2CCN2CCOCC2)cc1OCC (stereo not given)
1.01	1.03	Cc1ccc(-n2nc3c(c2NC(=O)c2ccco2)CS(=O)(=O)C3)cc1
0.01	-0.97	CCOC(=O)c1sc(C)c2c(=O)n(CCc3ccccc3)nnc12
1.56	0.21	CC(C)N1CCC(N2CCN(C3CCCC3)CC2CCO)CC1 (stereo not given)
0.73	-0.22	CCOC(=O)C(NC(C)=O)C(=O)O (stereo not given)
1.67	-3.24	O=C(Nc1ccc2nc(-c3ccccc3)[nH]c2c1)c1cccs1
0.05	-1.69	COc1ccccc1N=Nc1c(C)[nH][nH]c1=O
0.34	1.68	O=C(NCc1n[nH]c(=S)n1-c1cccc(C(F)(F)F)c1)c1ccc(S(=O)(=O)N2CCCCC2)cc1
0.01	0.41	CCOC(=O)N1CCN(C(=O)C(NC(=O)C2CCC(C)CC2)C(C)C)CC1 (stereo not given)
0.71	-1.01	C=CCNc1nc(C(=O)OCC(=O)c2ccc(C)c([N+](=O)[O-])c2)cs1
1.31	-1.23	COC(=O)C1=C(C)NC(=O)CC1c1ccc(F)c(Br)c1 (stereo not given)
0.37	-0.01	CC(=O)Nc1ccc(OC(=O)c2cccs2)cc1
0.12	0.09	CCCN(CC(=O)Nc1ccccc1C)C(=O)c1ccc(=O)n(Cc2ccccc2)n1
0.08	1.61	c1cnc(N2CCN(c3cnccn3)CC2)nc1
0.85	1.5	Cc1ccccc1NC(=O)CSc1nnc(Cc2ccccc2)c(=O)n1N
0.48	-1.17	COc1ccc(C(=O)N/N=C(/C)c2ccc(N3CCCCC3)cc2)cc1
0.21	-0.61	Fc1ccc2nc(N3CCOCC3)sc2c1
0.73	0.52	COC(=O)CC1C(=O)NCCN1C(=O)c1ccc(Cl)cc1 (stereo not given)

# (continued)
KCNQ2 enhance	KCNQ2 enhance baseline	molecule
0.01	0.28	O=C1CNC(=S)N1Cc1ccc(F)cc1
0.82	-2.09	COc1cc(OC)c(CN2CCCN(C)CC2)cc1Br
1.14	1.64	CCOC(=O)C1(Cc2ccccc2)CCN(Cc2ccc(COC)o2)CC1
1.51	-0.49	COc1ccc(OC)c(-n2c(C)cc(/C=C3\C(=N)N4N=C(CC(=O)N5CCOCC5)SC4=NC3=O)c2C)c1
0.53	0.23	CC(OC(=O)c1nsc(Cl)c1Cl)C(=O)NCc1cccs1 (stereo not given)
1.23	-0.61	CCOc1ccc(C(=O)Nc2ncccc2Cl)cc1
1.24	1.05	Cc1cc(NC(=S)N(CCCN2CCN(C)CC2)Cc2ccco2)ccc1Cl
0.12	-1.98	O=C(CSc1cc(Cl)ccc1Cl)NCC1CCCO1 (stereo not given)
0.61	-1.82	O=Cc1c(NCCc2cccc(F)c2)c2ccccc2[nH]c1=O
0.85	0.47	Cc1cc(NC(=O)CSc2nnc(COc3ccccc3)n2Cc2ccco2)no1
1.36	1.67	NS(=O)(=O)OCCCc1ccccc1
0.04	0.03	O=C(C1CCCN(Cc2cccc(Cl)c2)C1)N1CCCCC1 (stereo not given)
0.63	-0.31	Cc1cccc(S(=O)(=O)NC2CCCCCCC2)c1
0.61	1.44	O=C(c1ccco1)N1CCN(C(=O)C2CC(=O)N(c3ccccc3)C2)CC1 (stereo not given)
0.07	2.59	COc1cc(/C=C/C(=O)OC(C)C(=O)NC2CCCCC2C)cc(Cl)c1OC (stereo not given)
0.87	1.4	CC(C)Oc1ccc(C(=O)NC(=S)N2CCOCC2)cc1
0.7	-1.11	COc1ccc(Nc2nc(N3CCOCC3)nc(N3CCOCC3)n2)cc1Cl
2.07	-1.89	O=C1CCC(C(=O)Nc2cccc(Br)c2)N1 (stereo not given)
0.8	1.51	CCC(=O)Nc1ccc(Oc2ccc(NC(=O)CC)c(NC(=O)CC)c2)cc1
0.06	0.9	COC(=O)C1=C(C)N=c2s/c(=C/c3cccs3)c(=O)n2C1c1cccs1 (stereo not given)
1.59	-0.96	Cc1ccc(C)c(NC(=O)Cc2ccc(S(=O)(=O)N3CCCCC3)s2)c1
0.29	0.01	CNC(=O)/C(C#N)=C/c1c(N2CCN(c3ccccc3)CC2)nc2c(C)cccn2c1=O
0.65	0.73	COc1ccc(NC(=O)C/C(C)=N/NC(=O)c2ccncc2)c([N+](=O)[O-])c1
0.1	-0.05	COc1ccc(NC(=O)CSc2nnnn2-c2ccccc2OC)c(OC)c1
0.24	-0.15	C=CCn1c(C)nc2ccccc2c1=O
0.38	1.32	Cc1cccc(-n2cnc3c(sc4nc(N5CCOCC5)c5c(c43)CCCC5)c2=O)c1
0.97	-0.13	COc1ccc(OCC(=O)NNC(=O)Nc2cccc(Cl)c2)cc1

# Reformatted: results already given
# Below each SMILES – KCNQ2 enhance | KCNQ2 enhance baseline
- CC(C)Oc1ccc(C(=O)NC(=S)N2CCOCC2)cc1
 : 0.87 | 1.4
- Cc1cccc(-n2cnc3c(sc4nc(N5CCOCC5)c5c(c43)CCCC5)c2=O)c1
 : 0.38 | 1.32
- O=C(C1CCCN(Cc2cccc(Cl)c2)C1)N1CCCCC1 (stereo not given)
 : 0.04 | 0.03
